# Screening data (PubChem BioAssay)
# LANA-H2B inh: blocks KSHV LANA binding to histone H2A/H2B. Q9QR71. cell-free LANA-H2A/H2B peptide, fluorescence polarization. inhibition, % (no concentration beside the values). actives 0.6% (n = 320,000). AID 2629; in the data active means inhibition mostly above about 10%, no sharp cut-off; inactive means mostly below about 6.7%;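 further: stock transfer was 7.5 nL into about 10 µL; 0% = median of vehicle wells and 100% = median of positive control wells; one replicate is shown; the record names a cut of 25% in any replicate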
# B2AR ag: agonists of human beta-2 adrenergic receptor inducing internalization; P07550; Am2.2-beta2AR cells, FAP receptor internalization, flow cytometry; reference of the scale not given here; response, % (test concentration not listed); actives 0.43% (n = 340,000);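 active means response above a set limit, near 3 SD of response in nonfluorescent compounds, cut at about 42% in these data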;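 further: stock transfer was 100 nL into about 11 µL; a reference agonist was the positive control; negative values mostly stem from fluorescent compounds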
# Target sequence (P07550 whole entry, looked up): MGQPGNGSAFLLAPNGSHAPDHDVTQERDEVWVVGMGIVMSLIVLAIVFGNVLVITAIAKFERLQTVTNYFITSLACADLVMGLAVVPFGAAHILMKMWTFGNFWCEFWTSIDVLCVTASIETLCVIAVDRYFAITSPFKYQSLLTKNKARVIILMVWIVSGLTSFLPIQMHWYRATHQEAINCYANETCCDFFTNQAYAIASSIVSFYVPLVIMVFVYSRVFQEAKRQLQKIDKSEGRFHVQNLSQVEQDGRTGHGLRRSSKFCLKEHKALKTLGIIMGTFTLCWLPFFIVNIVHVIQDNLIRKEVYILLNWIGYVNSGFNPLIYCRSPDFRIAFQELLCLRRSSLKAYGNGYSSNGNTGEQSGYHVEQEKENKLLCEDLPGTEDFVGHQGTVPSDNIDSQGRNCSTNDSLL
# HNF4A DNA FP: change in binding of human HNF4 alpha to DNA; HNF4a-FITC DNA binding, fluorescence polarization, 1 h; activity change, % at 10 µM; actives 0.3% (n = 360,000); AID 1224865; in the data active means activity change above about 30%, passing the limit was not always enough;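 further: controls were the assay level and a saturating level of protein; the project sought stronger binding though the title names inhibitors; some compounds called inactive have numbers as strong as hits; positive values seem to mean higher polarization but the record does not say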
# Ecoli growth: inhibitors of Escherichia coli growth; OD600, 23 h; stronger effect = lower value; OD600 absorbance (test concentration not listed); actives 0.21% (n = 330,000);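 active means OD600 absorbance below the run mean of sample wells minus 3.6 SD, in any replicate, cut at about 0.56 in these data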;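 further: stock transfer was 300 nL into about 60 µL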
# Vif TR-FRET: HIV-1 Vif–A3G interaction blockers – biochemical, TR-FRET, GST-Vif 1-94, biotin-A3G peptide, dose response retest, primary screen (AID 1117319); TR-FRET GST-Vif / biotin-A3G peptide binding; higher % means a stronger effect; test concentration not given here; strong numbers were not always called active; inhibition, %; hits with a dose series show IC50 in µM; actives 0.57% (n = 260,000);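 active means above the screen mean plus three standard deviations and confirmed in dose response; inconclusive means results disagree or hit not tested in dose response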;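 further: Vif residues 1-94 fused to GST binding biotinylated APOBEC3G peptide 110-148; 0% = full assay without inhibitor and 100% = GST in place of GST-Vif; retest series ran down from 100 µM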
# UCH37 inh: inhibitors of human deubiquitinating enzyme UCH37; Q9Y5K5; purified proteasome/UCH37, Ub-AMC cleavage fluorescence; inhibition, % (concentration not given with the values); actives 0.33% (n = 330,000); AID 588478;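 active means mean of two replicates above 20%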;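 further: 0% = compound-free wells with enzyme and 100% = wells lacking proteasome; stock transfer was 100 nL into about 20 µL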
# Target sequence (Q9Y5K5 whole entry, looked up): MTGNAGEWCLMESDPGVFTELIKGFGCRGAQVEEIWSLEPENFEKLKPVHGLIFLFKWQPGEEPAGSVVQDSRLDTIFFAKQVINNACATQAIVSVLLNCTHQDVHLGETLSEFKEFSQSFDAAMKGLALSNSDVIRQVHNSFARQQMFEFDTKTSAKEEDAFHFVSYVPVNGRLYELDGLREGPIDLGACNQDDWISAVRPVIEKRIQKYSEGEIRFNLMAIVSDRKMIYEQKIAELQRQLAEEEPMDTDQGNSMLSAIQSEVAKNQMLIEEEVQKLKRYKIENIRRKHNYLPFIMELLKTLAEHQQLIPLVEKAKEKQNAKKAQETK
#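 Material: human UCH37 enzyme supplied as purified proteasome complex / Amount: 0.15 nM proteasome as dispensed / Buffer or medium: pH 7.4 Tris-HCl (50 mM) with ovalbumin, ATP-MgCl2, DTT / Times: preincubation 30 min, reaction 25 min, room temperature / Technique: AMC fluorescence from Ub-AMC cleavage, excitation 355 nm, emission 460 nm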
# Bfl-1 A1 inh: inhibitors of the anti-apoptotic protein A1, read as caspase activation. MEF A1-2A-BIM cells, Caspase-Glo 3/7 luminescence, 3 h; percent of clofoctol response, vehicle zero. AID 2462. actives 0.066% (n = 330,000). caspase activation, % (no concentration beside the values);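 active means over half of replicate activation scores above 10%, or exactly half above 10 with the replicate mean above 10; inconclusive means replicate mean below 10 yet half the replicates above 10; inactive means over half of replicates below 10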;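 further: wells of about 30 µL received 50 nL stock; many hits fall short of the cut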
# * marks the source's active call; other numbers are inactive results; ? = inconclusive; · = not tested or not shown; & = joins results of further samples.
SMILES,LANA-H2B inh,B2AR ag,HNF4A DNA FP,Ecoli growth,Vif TR-FRET,UCH37 inh,Bfl-1 A1 inh
Cc1cnc(C(=O)NC(Cc2ccccc2)c2ccccc2)cn1 (stereo not drawn),-5.1,-8,3.2,0.7,·,3.0,-0.3
O=C(Nc1nc(-c2ccc3c(c2)OCO3)cs1)c1ccncc1,-1.7,20,0.3,·,18%,·,0.8
Cn1c(C2CCCN2C(=O)OC(C)(C)C)n[nH]c1=S (stereo not drawn),-0.8,1,-1.0,0.7,-3%,1.9,2.5
O=C(Nc1ccccc1)C(=O)Nc1ccc2c(c1)N(C(=O)C1CC1)CCC2,-1.9,15,0.9,0.66,-9%,2.6,-12
Cc1nn(CC(=O)NCc2ccccc2)c(=O)c2ccccc12,4.4,-4,2.3,0.71,3%,4.2,-0.2
CC1CCN(CCc2nc3cc(NC(=O)COc4ccc(Cl)cc4)ccc3n2C)CC1,-0.4,20,4.2,0.6,1%,2.8,1.4
O=C(Nc1cccc(S(=O)(=O)N2CCOCC2)c1)C1CC1,-4.9,-5,-2.2,0.7,·,2.5,-0.5
Cn1c(CNS(=O)(=O)c2ccc(Cl)cc2)n[nH]c1=S,2.0,-2,-1.0,0.73,-1%,-1.6,-1.1
Nc1cc2c(cc1[N+](=O)[O-])OCCOCCOCCO2,5.5,2,-1.5,0.69,21%,1.3,1.0
O=C(c1ccc2ncsc2c1)N1CCN(c2cccc(C(F)(F)F)c2)CC1,·,-13,3.1,0.71,7%,1.5,·
Cc1ccc(OC(=O)c2ccc([N+](=O)[O-])cc2Cl)cn1,-1.3,-8,2.5,0.63,8%,0.3,-1.0
CCc1nnc(NC(=O)CSc2nnc(CNC(=O)c3ccccc3F)n2C)s1,1.7,-5,0.9,0.68,-8%,-1.4,-0.1
CC(C)(C)C(=O)Cn1ncc(Br)c(Br)c1=O,·,8,5.3,0.71,-6%,6.1,·
CC(=O)Nc1ccc(S(=O)(=O)NCCSCc2cccc(Cl)c2)cc1,3.4,4,2.4,0.66,2%,7.5,0.1
CCc1ccc(-c2nc(CSCC(=O)N3CCN(c4ncccn4)CC3)c(C)o2)cc1,-1.4,-7,3.9,0.75,-1%,2.8,-0.3

# As a working copy, 2 of the compounds above:
SMILES,LANA-H2B inh,B2AR ag,HNF4A DNA FP,Ecoli growth,Vif TR-FRET,UCH37 inh,Bfl-1 A1 inh
O=C(Nc1ccccc1)C(=O)Nc1ccc2c(c1)N(C(=O)C1CC1)CCC2,-1.9,15,0.9,0.66,-9%,2.6,-12
Cc1nn(CC(=O)NCc2ccccc2)c(=O)c2ccccc12,4.4,-4,2.3,0.71,3%,4.2,-0.2

# (more compounds)
SMILES,LANA-H2B inh,B2AR ag,HNF4A DNA FP,Ecoli growth,Vif TR-FRET,UCH37 inh,Bfl-1 A1 inh
CCOC(=O)C1=C(C)OC(N)=C(C#N)C1c1cncc(-c2ccc(F)cc2)c1 (stereo not drawn),1.0,-5,3.1,0.67,3%,9.0,0.4
CC1(C)Cc2cccc(OCC(=O)N3CCN(c4cccc(Cl)c4)CC3)c2O1,-1.3,1,-1.6,0.68,-2%,3.8,0.2
O=C(Nc1cc(S(=O)(=O)N2CCCC2)ccc1OCC(F)(F)F)c1ccc(F)cc1,3.1,-7,-1.4,0.7,31%,4.0,-1.2
Cc1ccc(S(=O)(=O)CCC(=O)OCC(=O)NCC(=O)Nc2cccc(C)c2C)cc1,-3.3,12,-4.8,0.72,·,-1.6,-0.5
Cc1ccc(N(C(=O)CC2NC(=O)NC2=O)C2(C(=O)NC3CCCC3)CCCCC2)cc1 (stereo not drawn),-2.6,-4,-2.8,0.68,25%,1.7,-0.6
CCOC(=O)c1c(C)[nH]c(C)c1S(=O)(=O)N(C)CC(=O)Nc1cccc(C)n1,11,-7,0.6,0.72,·,0.1,1.5
CC1(C)CC(n2c(NCCO)nc3c(c2=O)C2(CCCC2)Cc2ccccc2-3)CCO1 (stereo not drawn),-4.1,1,-0.9,0.72,0%,-92,-0.6
O=C(CSc1nc(O)c(C2CCCCC2)c(=O)[nH]1)Nc1ccc(F)cc1,10,-2,-3.2,·,·,·,0.1
Cn1c(Br)nc2c1c(=O)n(CC(O)COc1ccccc1)c(=O)n2C (stereo not drawn),2.9,-6,-4.2,0.77,-4%,0.4,-0.3
O=C(N/N=C/c1ccc(OC(=O)c2ccccc2Cl)cc1)c1ccccn1,-2.6,1,-2.1,·,-5%,·,-10
Cc1ccccc1Oc1ccc(S(=O)(=O)NCCC(=O)O)cc1,-5.1,12,1.2,0.7,-10%,0.9,0.4
CC(=O)N1CCN(CC(O)COc2ccc(OCc3ccccc3)cc2)CC1 (stereo not drawn),-8.8,9,0.1,0.66,-5%,0.9,0.1
Cc1ccc(CNC(=O)C2CCCN(c3nn4c(=O)cc(C)nc4s3)C2)cc1 (stereo not drawn),5.6,-4,2.4,0.69,6%,1.9,0.1
CSc1ccccc1C(=O)C1CCCN(S(=O)(=O)c2c(C)noc2C)C1 (stereo not drawn),-2.6,4,-2.9,0.69,-1%,5.3,-0.4
O=C(COc1ccc(F)cc1F)NNC(=O)Nc1cccc([N+](=O)[O-])c1,-10,-4,-1.1,0.68,·,3.1,-0.6
O=C(COC(=O)c1cccnc1)Nc1ccc(F)cc1,3.1,1,1.9,0.72,-14%,0.0,-0.5
O=C(CCCn1c(=S)[nH]c2cc3c(cc2c1=O)OCO3)NCc1cccc(Cl)c1,2.3,4,3.0,0.73,·,-0.7,1.2
COCCC(=O)N1CCC(Oc2ccc(C(=O)NCc3ncc(C)[nH]3)cc2)CC1,-1.9,-4,-2.1,0.65,·,-0.8,0.6
CN(C)S(=O)(=O)c1cccc(C(=O)Nc2cc(S(=O)(=O)N3CCOCC3)ccc2O)c1,·,-3,3.0,0.69,2%,7.3,·
COC(=O)c1ccc(-c2nc(O)c3cnccn23)cc1,-0.5,-3,2.0,0.7,9%,9.3,0.6
COc1cc(Cn2c(=O)c3c(OC)c(C)cnc3n(C)c2=O)cc(OC)c1,-4.0,-1,0.8,0.62,·,1.2,-0.1
CN1CCC(N(C)S(=O)(=O)c2ccc(C(C)(C)C)cc2)CC1,-3.5,2,0.2,0.62,5%,1.5,0.3
CC(C)Nc1nc(NC(C)C)nc(OCCOC(=O)Nc2ccccc2)n1,-3.4,-14,-0.6,0.66,4%,2.9,-3.9
CCC(C(=O)Nc1ccc2c(c1)OCCO2)c1ccccc1 (stereo not drawn),8.4,-8,-0.2,0.7,3%,0.4,0.3
O=C(CS(=O)(=O)c1c[nH]c2ccccc12)N1CCc2ccccc21,-4.4,-6,0.8,0.73,15%,5.6,1.0
CC(NC(=O)c1ccc(S(=O)(=O)Nc2ccccc2)cc1)c1ccc(S(N)(=O)=O)cc1 (stereo not drawn),-8.5,-7,-0.6,0.69,4%,1.5,-0.6
O=C(NCC(c1ccco1)N1CCN(c2ccccc2)CC1)C(=O)NC1CCCCC1 (stereo not drawn),1.5,-2,-2.7,0.72,2%,-0.3,0.9
Nc1ccc2oc(-c3ccccc3Cl)cc(=O)c2c1O,-5.2,-11,-4.8,0.69,?,0.9,-2.3
CCCn1c(SCC(=O)NC2CCCCC2)nnc1-c1ccco1,1.5,2,-2.4,0.67,6%,-1.5,0.4
CC1CCN(C(=O)CSc2nc3[nH]ncc3c(=O)[nH]2)CC1,1.2,-4,0.5,0.67,?,0.7,-0.4
O=C(N/N=C/c1c[nH]c2ccccc12)c1cc(-c2cccc3ccccc23)n[nH]1,1.9,3,0.2,·,30%,·,0.7
CC1CN(C(=O)c2ccc(S(=O)(=O)Nc3cccc(C(F)(F)F)c3)cc2)CC(C)O1 (stereo not drawn),-2.6,3,4.3,0.66,·,2.6,-0.5
Cn1cccc1/C=N/NC(=O)Cc1cccc2ccccc12,-5.3,-11,0.9,·,0%,·,0.4
COc1cc([N+](=O)[O-])cc(/C=N/NC(=O)Cn2cncn2)c1O,-2.4,-6,3.6,·,4%,·,-0.6
COC(=O)c1ccc(NC(=O)[C@H](C)NC(N)=O)cc1,0.0,-2,5.0,0.73,12%,0.6,-0.1
CCOC(=O)CSc1nnc(C2CCCCC2)n1C,-3.5,2,-2.3,0.68,-5%,1.1,0.4
Nc1nc(-c2ccco2)cs1,0.7,-3,3.0,0.7,-1%,3.5,?
NNC(=O)c1cccc(O)c1,-4.6,0,1.0,0.7,21%,2.8,1.3
CCc1ccc(NC(=O)Cc2ccc(NC3=NC4CS(=O)(=O)CC4S3)cc2)cc1 (stereo not drawn),3.2,-5,0.4,0.75,·,1.3,-1.7
CC(=O)Nc1ccc(CN2CCN(C3CCCC3)C(CCO)C2)cc1 (stereo not drawn),-1.5,1,1.3,·,-1%,·,-0.1
Cc1csc2nc3cc(C(N)=O)ccc3c(=O)n12,5.3,-6,1.5,0.67,6%,-83,-0.5
Cc1nnc(NC(=O)CSc2nccn2Cc2ccccc2)s1,0.5,0,-2.5,0.65,·,0.5,-0.1
CCOc1ccc(Cl)cc1CN1CCOCC1,1.7,-11,-0.4,0.73,4%,0.3,0.2
O=C(CCc1ccccc1)N/N=C/c1cccc([N+](=O)[O-])c1,0.0,4,-0.1,·,-13%,·,1.3
Cc1oc(-c2ccc(Cl)cc2)nc1CN1CCC(C(=O)NCCCN2CCCC2=O)CC1,-1.3,4,1.2,0.76,1%&13%,-1.2,-2.5
S=C1NCCc2ccc(Cl)cc2C1c1ccccc1 (stereo not drawn),-5.1,6,0.3,0.7,12%,2.6,-0.6
CCCNC(=O)COC(=O)c1ccccc1OCc1ccc(Cl)cc1,4.4,6,-1.8,0.73,67%,1.8,0.6
O=C(NC1CCCCC1)c1cccc2c1C(=O)c1ccc(N3CCC(Cc4ccccc4)CC3)cc1S2(=O)=O,1.4,6,-94,0.69,·,1.6,0.0
Cc1ccc(/C(N)=N/OC(=O)Cc2cccs2)cc1,0.8,2,4.6,0.72,7%,3.3,-1.0
CCOC(=O)Cc1csc(NC(=O)c2cnc3sc(C)cn3c2=O)n1,-4.1,1,-1.1,0.62,-4%,7.1,-0.1
O=C(NCC1CCCO1)C(Cc1ccccc1)N1C(=O)C2C3C=CC(C4CC34)C2C1=O (stereo not drawn),0.7,0,0.9,0.69,-3%,1.5,1.1
CCN(CC)C(=O)C12C(=O)Oc3ccccc3C1C2(C)C(=O)c1ccc(F)cc1 (stereo not drawn),-2.4,1,-5.0,0.68,14%,-2.6,0.0
COC(=O)c1c(NC(=O)C2CC=CCC2C(=O)O)sc(C)c1C (stereo not drawn),-0.1,6,-4.0,0.77,-3%,0.6,0.8
CCOc1ccc(OCC(=O)OCC(=O)Nc2ccccc2C#N)cc1,·,-6,-3.3,0.62,3%,-0.9,·
CC(C)CCOCC(O)CCC(=O)NNC(=S)Nc1ccccc1 (stereo not drawn),2.7,-2,0.0,0.66,·,0.6,0.0
O=C(Oc1ccccc1/C=C\C(=O)c1cc2ccccc2o1)c1cccc(F)c1,17*,24,3.3,0.71,21%,3.4,1.5
CC(C)C(c1nnnn1Cc1ccccc1)N(Cc1ccco1)Cc1cccs1 (stereo not drawn),-0.8,2,1.4,0.66,4%,-2.0,0.0

# 5 compounds from above, showing only Ecoli growth:
SMILES	Ecoli growth
O=C(NC1CCCCC1)c1cccc2c1C(=O)c1ccc(N3CCC(Cc4ccccc4)CC3)cc1S2(=O)=O	0.69
Cc1ccc(/C(N)=N/OC(=O)Cc2cccs2)cc1	0.72
CCOC(=O)Cc1csc(NC(=O)c2cnc3sc(C)cn3c2=O)n1	0.62
O=C(NCC1CCCO1)C(Cc1ccccc1)N1C(=O)C2C3C=CC(C4CC34)C2C1=O (stereo not drawn)	0.69
CCN(CC)C(=O)C12C(=O)Oc3ccccc3C1C2(C)C(=O)c1ccc(F)cc1 (stereo not drawn)	0.68
